Screens (PubChem)
FGF22 binding: FGF22 (human) thermal shift binding; Q9HCT0; recombinant FGF22 thermal shift, SYPRO orange fluorescence; percent of sucrose octasulfate shift, DMSO zero; calls only at 9.99 µM; 340,000 tested, 1.5% active; AID 651658;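 active = melting point raised past a set limit in the mean and every replicate; three in four hits are not shown here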
Target sequence (Q9HCT0 whole entry, looked up): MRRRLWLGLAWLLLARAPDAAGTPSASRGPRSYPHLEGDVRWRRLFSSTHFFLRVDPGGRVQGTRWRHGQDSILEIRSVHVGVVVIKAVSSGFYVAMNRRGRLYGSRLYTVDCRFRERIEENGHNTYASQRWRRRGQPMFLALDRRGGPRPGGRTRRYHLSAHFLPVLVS
Beta2AR agonist: activates human beta-2 adrenergic receptor causing internalization; AID 504454; Am2.2-beta2AR cells, FAP receptor internalization, flow cytometry; reference of the scale not given here; response, % (test concentration not listed); 340,000 tested, 0.43% active;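 active = response above a set limit, near 3 SD of response in nonfluorescent compounds, cut at about 42% in these data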;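 note: stock transfer was 100 nL into about 11 µL; a reference agonist was the positive control; negative values mostly stem from fluorescent compounds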
Target sequence (P07550 whole entry, looked up): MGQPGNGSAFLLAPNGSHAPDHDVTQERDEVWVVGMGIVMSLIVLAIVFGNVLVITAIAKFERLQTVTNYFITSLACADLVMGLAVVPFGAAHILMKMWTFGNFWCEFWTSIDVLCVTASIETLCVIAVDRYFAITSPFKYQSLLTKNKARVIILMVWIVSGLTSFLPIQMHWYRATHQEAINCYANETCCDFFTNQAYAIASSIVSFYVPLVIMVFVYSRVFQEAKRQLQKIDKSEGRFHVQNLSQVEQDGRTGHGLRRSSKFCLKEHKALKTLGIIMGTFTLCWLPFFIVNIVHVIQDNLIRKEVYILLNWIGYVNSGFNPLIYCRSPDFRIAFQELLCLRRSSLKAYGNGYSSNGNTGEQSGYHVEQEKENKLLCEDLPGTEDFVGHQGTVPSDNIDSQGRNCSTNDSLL
rRNA inh HTS: inhibits bacterial ribosomal RNA function over humanized ribosomes; E. coli WT GFP vs humanized-ribosome RFP mutants, fluorescence, 24 h; active compounds read low; DMSO median 0, no signal -100; GFP signal change (wild-type ribosome), % (test concentration not listed); 350,000 tested, 1.6% active;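 active = significant combined selectivity score with lowered wild-type GFP, culture density cut under 30%, mutant RFP and density less affected; inactive = any of these conditions unmet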; note: one replicate is shown; some compounds called inactive have numbers as strong as hits
ALR inh: blocks human ALR sulfhydryl oxidase activity; P55789; purified ALR, DTT oxidation, H2O2 HRP-luminol luminescence; inhibition, % (concentration not given with the values); 290,000 tested, 3.8% active; AID 485317;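 active = mean and each replicate at 75% or more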;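 note: stock transfer was 7.5 nL into about 7.5 µL; 0% = neutral wells and 100% = wells with inactivated enzyme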
UCH37 inh: human UCH37 deubiquitinating enzyme inhibition; purified proteasome/UCH37, Ub-AMC cleavage fluorescence; inhibition, % (concentration not given with the values); AID 588478; 330,000 tested, 0.33% active; Q9Y5K5;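 active = mean of two replicates above 20%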;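 note: 0% = compound-free wells with enzyme and 100% = wells lacking proteasome; stock transfer was 100 nL into about 20 µL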
Target sequence (Q9Y5K5 whole entry, looked up): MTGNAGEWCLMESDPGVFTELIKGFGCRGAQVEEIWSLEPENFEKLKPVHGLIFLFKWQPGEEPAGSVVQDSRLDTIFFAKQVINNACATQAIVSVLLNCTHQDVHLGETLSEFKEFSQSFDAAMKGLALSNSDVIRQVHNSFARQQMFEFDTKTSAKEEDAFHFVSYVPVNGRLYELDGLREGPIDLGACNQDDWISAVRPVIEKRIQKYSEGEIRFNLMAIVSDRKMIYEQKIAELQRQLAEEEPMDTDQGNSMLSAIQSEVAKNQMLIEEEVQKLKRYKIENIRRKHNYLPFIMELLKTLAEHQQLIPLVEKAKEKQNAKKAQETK
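Schedule: 30 min plus 25 min, room temperature / Material: human UCH37 within purified proteasomes / Technique: AMC fluorescence intensity at 355/460 nm / Buffer or medium: pH 7.4 Tris-HCl (50 mM) with ovalbumin, ATP-MgCl2, DTT / Controls: wells without proteasome as full block, compound-free enzyme plus substrate as uninhibited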
HNF4A DNA FP: change in binding of human HNF4 alpha to DNA; P41235; HNF4a-FITC DNA binding, fluorescence polarization, 1 h; activity change, % at 10 µM; 360,000 tested, 0.3% active; in the data active = activity change above about 30%, passing the limit was not always enough;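 note: controls were the assay level and a saturating level of protein; the project sought stronger binding though the title names inhibitors; some compounds called inactive have numbers as strong as hits; positive values seem to mean higher polarization but the record does not say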
E coli growth: blocks Escherichia coli growth | OD600, 23 h; active compounds read low | OD600 absorbance (no concentration beside the values) | 330,000 tested, 0.21% active | AID 1053175;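 active = OD600 absorbance below the run mean of sample wells minus 3.6 SD, in any replicate, cut at about 0.56 in these data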;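 note: stock transfer was 300 nL into about 60 µL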
rRNA inh HTS OD600: also measured in rRNA inh HTS; calls as there; OD600 change, %; measured here: OD600 growth;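 optical density of the mix in the first replicate; 0 = DMSO median and -100 = no signal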
rRNA inh HTS RFP: further read-out of rRNA inh HTS, marked with its call; RFP signal change, %; measured here: RFP humanized mutant strains;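 first replicate; 0 = DMSO median and -100 = no signal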
* marks the source's active call; other numbers are inactive results; i = inactive; . = not tested or not shown.

entry	FGF22 binding	Beta2AR agonist	rRNA inh HTS	rRNA inh HTS OD600	rRNA inh HTS RFP	ALR inh	UCH37 inh	HNF4A DNA FP	E coli growth	canonical_smiles
1	.	4.1	.	.	.	.	5.2	1.9	0.651	CCOC(=O)Nc1c(C)n(C)n(-c2ccccc2)c1=O
2	i	4.4	14.4	0.2	-0.2	-12.4	-1.9	1.7	0.704	Cc1ccc(-c2nn3c(C)nnc3s2)cc1NC(=O)c1ccco1
3	i	16.5	5.6	14.9	8.3	2.5	.	-1.9	.	Cc1ccc(/C=N/NC(=O)CSc2nc3ccccc3c(=O)n2-c2ccccc2)s1
4	.	-4.2	.	.	.	-8.7	2.4	-0.1	0.669	Cc1cc(C)n(-c2c(F)c(F)c(CN3CCOCC3)c(F)c2F)n1
5	.	1.3	.	.	.	.	1.2	5.2	0.604	CCc1ccccc1NC(=O)c1cnccn1
6	.	4.5	.	.	.	-5.1	5.7	2.3	0.663	CCSC(=O)N(CC)CC(=O)Nc1c(CC)cccc1CC
7	i	5.2	6.4	7.6	1.6	90.8*	-3.2	-1.0	0.734	COc1cccc(CNC(=O)c2ccc(C3SCCS3)cc2)c1
8	i	-6.2	.	.	.	-3.3	3.7	2.0	0.74	CSc1sc(C(=O)OC(C)C)c2c1C(=O)CC(C)(C)C2
9	i	.	-10.9	-9.2	0.6	.	.	-5.7	.	CC(C)C[C@H]1CN(CCCC[C@H]2CNC(=O)C(=O)N2CCc2ccccc2)C(=O)C(=O)N1CC1CCCCC1
10	.	16.7	4.2	13.0	-1.5	-0.4	-4.0	3.1	0.754	C=CCC(Nc1ccccc1)C12C=CC(O1)C(C(=O)OC)=C2C(=O)OC (stereo unspecified)
11	i	-9.8	4.2	9.1	4.6	2.8	4.6	-1.9	0.669	Cc1cc(C(=O)Nc2cc(C(C)(C)C)on2)c(C)o1
12	i	-5.8	18.4	9.9	-0.4	85.3*	4.7	3.4	0.693	COc1ccc2oc(C)c(C(=O)NN)c2c1
13	i	3.2	-0.2	5.1	2.9	-8.0	-3.6	-1.4	0.735	COc1ccc(CCNC(=O)C(=O)NCC2OCCN2S(=O)(=O)c2ccc3c(c2)OCCO3)cc1OC (stereo unspecified)
14	i	25.2	-31.4*	-3.2*	-0.9*	9.2	.	0.2	.	C(=N\Nc1nc2ccccc2[nH]1)/c1cccc2nccnc12
15	i	.	-11.0	-19.0	-2.6	.	.	-2.8	.	COC(=O)[C@@]12C[C@@H](CC(=O)NCc3ccc(OC)c(OC)c3)C(=O)N(Cc3ccccc3)C1=CCC(C)(C)C2
16	i	-21.4	-12.9	-14.5	-4.1	.	-44.6	-1.3	0.671	Cc1cc(C)n2cc(COc3ccc4ccccc4c3)nc2n1
17	i	3.0	-10.9	-12.3	1.8	-6.6	-0.9	-0.8	0.714	COc1ccc(/C=C/C(=O)OC(C)C(=O)c2ccccc2)cc1OC (stereo unspecified)
18	.	9.7	.	.	.	0.4	-237.0	-0.5	0.732	CC1(C)Cc2c(sc3nc(-c4cc5ccccc5o4)n(N)c(=O)c23)CO1
19	.	-4.8	.	.	.	-9.2	0.8	5.7	0.757	COc1ccc(/C=C/C(=O)c2c(O)cc(C)oc2=O)c(OC)c1
20	i	-3.6	6.3	12.1	7.9	2.5	0.1	-1.0	0.718	O=C(NCCCn1ccnc1)C(=O)NCC1OCCN1S(=O)(=O)c1cc(F)ccc1F (stereo unspecified)
21	i	9.8	8.2	8.5	-3.0	.	1.2	0.7	0.703	O=C(Nc1ccc(NC(=O)C2CCCCC2)nc1)c1cccc(F)c1
22	i	10.6	-2.0	0.1	1.4	.	.	-2.4	.	COc1cc2c(c(OC)c1OC)-c1ccc(OC)c(=O)cc1C(NC(=O)c1ccccc1)CC2 (stereo unspecified)
23	i	-4.5	-20.9	-32.7	-12.0	-9.3	-0.5	-2.6	0.708	CCc1cccc(CC)c1NC(=S)NCc1nc2ccccc2[nH]1
24	i	-0.9	6.3	10.4	-2.1	-2.4	0.8	-1.9	0.643	CCCN(C(=O)CCOc1ccc(C(C)(C)C)cc1)c1c(N)n(Cc2ccccc2)c(=O)[nH]c1=O
25	i	0.0	0.7	2.0	-2.8	-7.8	2.4	0.3	0.64	COc1ccccc1-n1cccc1C=O
26	i	-9.8	-1.9	-6.2	-0.8	45.3	-0.1	0.5	0.681	CC(C)CCNC1=CC(=O)CC(c2ccccc2)C1 (stereo unspecified)
27	i	-40.7	9.8	21.6	-1.2	.	-61.1	2.3	0.703	COc1ccc(-c2nc3ncccc3o2)cc1NC(=O)c1ccco1
28	i	2.2	2.7	4.9	-0.2	-8.8	0.4	1.9	0.636	CC(C)c1nnc(NC(=O)C2CCCN2C(=O)Nc2ccccc2)s1 (stereo unspecified)
29	.	17.2	.	.	.	11.7	0.5	-0.1	0.749	O=C(Cc1ccc(-n2cccc2)cc1)NC1CCCCC1
30	.	-3.8	.	.	.	-3.6	3.4	14.8	0.689	CN(C)CCNC(=O)c1ccccc1
31	i	2.0	11.1	7.3	-6.7	-8.8	6.5	3.4	0.654	CCOC(=O)C1CCCN(C/C=C/c2ccccc2[N+](=O)[O-])C1 (stereo unspecified)
32	.	-3.2	.	.	.	63.1	0.6	4.0	0.715	COC(=O)NNS(=O)(=O)c1ccc(C)cc1
33	.	0.8	1.6	8.8	0.6	-12.4	3.5	1.1	0.661	N#Cc1cn(Cc2ccccc2)c(=O)[nH]c1=O
34	i	-14.4	-1.0	-2.0	0.6	5.0	-32.6	-0.6	0.64	COc1ccc(Cl)cc1N=Cc1c(O)c2ccccc2oc1=O
35	i	-7.2	0.2	2.6	-2.6	-2.2	0.6	2.6	0.689	COc1ccc(NC(=O)CN(C)C(=O)CCCc2nc3ccccc3c(=O)[nH]2)cc1
36	i	1.4	11.6	10.9	-0.5	16.4	9.7	-1.5	0.597	COCc1[nH]c(=S)c(C#N)cc1C(=O)OC
37	i	.	-2.4	-6.8	-1.3	.	.	-0.3	.	O=S(=O)(NCCS(=O)(=O)N1CCN(c2ccc(F)cc2)CC1)c1ccccc1
38	.	20.5	.	.	.	-7.2	-0.3	4.5	0.713	CC1=CC(C)(C)N2C(=O)C3(SCC(=O)N3c3ccc(F)cc3)c3cc(C)cc1c32 (stereo unspecified)
39	i	-6.2	4.2	8.3	-0.4	-3.6	-1.1	0.7	0.71	Cc1cccc(N2CC(C(=O)Nc3ccc4c(c3)OCCO4)CC2=O)c1C (stereo unspecified)
40	.	0.1	.	.	.	-3.8	.	-3.7	.	CC(/C=N\NC(=O)Cn1c(C)nc2ccccc21)=C\c1ccccc1

In the list so far, these contain two or more sulfur atoms.
entry	FGF22 binding	Beta2AR agonist	rRNA inh HTS	rRNA inh HTS OD600	rRNA inh HTS RFP	ALR inh	UCH37 inh	HNF4A DNA FP	E coli growth	canonical_smiles
3	i	16.5	5.6	14.9	8.3	2.5	.	-1.9	.	Cc1ccc(/C=N/NC(=O)CSc2nc3ccccc3c(=O)n2-c2ccccc2)s1
7	i	5.2	6.4	7.6	1.6	90.8*	-3.2	-1.0	0.734	COc1cccc(CNC(=O)c2ccc(C3SCCS3)cc2)c1
8	i	-6.2	.	.	.	-3.3	3.7	2.0	0.74	CSc1sc(C(=O)OC(C)C)c2c1C(=O)CC(C)(C)C2
37	i	.	-2.4	-6.8	-1.3	.	.	-0.3	.	O=S(=O)(NCCS(=O)(=O)N1CCN(c2ccc(F)cc2)CC1)c1ccccc1

(listing goes on)
entry	FGF22 binding	Beta2AR agonist	rRNA inh HTS	rRNA inh HTS OD600	rRNA inh HTS RFP	ALR inh	UCH37 inh	HNF4A DNA FP	E coli growth	canonical_smiles
41	i	-9.1	8.6	6.0	-1.0	.	0.8	-6.2	0.607	O=C(COC(=O)c1ccco1)Nc1ccc(N2CCOCC2)cc1
42	i	.	24.6	-1.1	-2.2	-7.2	-120.6	.	0.656	COc1nc(N=C(N)N)nc2ccc(C)cc12
43	i	.	3.4	7.5	-6.0	.	.	-3.5	.	COc1ccc(Cn2cc(CN3CC(N4CC=CC4)CS3(=O)=O)nn2)cc1 (stereo unspecified)
44	.	-12.1	.	.	.	-2.3	0.5	0.4	0.718	COCCn1c(COc2ccc(OC)cc2)nc2ccccc21
45	i	0.7	-15.8	-17.2	0.4	-2.4	1.6	2.9	0.693	O=C(Nc1ccc(N2CCN(C(=O)c3ccco3)CC2)c(Cl)c1)c1cccnc1
46	.	-1.0	.	.	.	-7.3	-154.2	-5.5	0.711	COCCn1cc(C(=O)N2CCCC(C)C2)c2c3ccccc3n(C)c2c1=O (stereo unspecified)
47	i	-5.4	-14.2	-7.0	-9.6	-10.4	5.2	-0.2	0.706	Brc1ccccc1-n1nnc(-c2cccnc2)n1
48	i	-4.3	7.9	3.7	10.9	3.0	-0.7	1.4	0.7	O=C(O)CCCNC(=O)Nc1ccccc1
49	i	7.2	0.1	-3.6	-2.3	0.0	0.7	-1.7	0.692	O=C(Nc1cccc(O)c1)c1ccc2c(c1)C(=O)N(Cc1ccco1)C2=O
50	i	-1.1	11.4	12.1	-1.7	.	-2.5	4.1	0.654	COCC(=O)OCC(=O)Nc1cc([N+](=O)[O-])ccc1Cl
51	i	3.6	11.6	3.6	3.4	-1.0	1.0	2.2	0.711	CN(CC(=O)NCc1cccs1)CC(=O)Nc1ccc(F)c(F)c1F
52	.	-15.2	.	.	.	-44.9	-6.1	1.5	0.713	CSc1cccc(NC(=O)c2ccc(Cl)nc2)c1
53	i	12.8	9.3	4.8	3.5	18.1	2.9	4.2	0.625	Cc1[nH]c(=O)[nH]c1C(=O)CCCCC(=O)O
54	.	3.0	.	.	.	-9.9	-33.8	-1.4	0.715	COc1cc2c(cc1OC)CN(C(=O)c1ccccc1C(=O)O)CC2
55	i	-6.1	-0.2	-1.4	1.2	-3.5	4.3	0.1	0.762	COc1ccc(CC(=O)N(c2ccccc2)c2nc(C)cs2)cc1
56	i	10.8	-0.9	-1.0	-1.4	-14.8	-4.2	1.5	0.615	CC(=O)N(CCc1ccccc1C)Cc1cc2ccc(C)cc2[nH]c1=O
57	i	-4.7	-0.9	6.5	-2.6	-20.8	3.1	-0.9	0.672	COc1ccc(N(CC(=O)NCCc2ccc(OC)c(OC)c2)S(=O)(=O)c2ccc(OC)c(OC)c2)cc1
58	i	-7.2	7.1	12.7	-2.6	4.9	i	-0.3	0.658	Cc1cc(=O)oc2c3c(cc(OCC(=O)NCCC(=O)N[C@@H](C)C(=O)O)c12)OC(C)(C)CC3
59	.	10.6	-5.6	0.9	3.1	11.4	.	-15.7	.	O=C(Nc1cc(C(=O)Nc2ccccc2C(=O)O)cc(C(=O)Nc2ccccc2C(=O)O)c1)c1ccccc1

Only part of the results is shown; count on the stated rates, not on these rows.
